# TRPML1 inh – inhibitors of human TRPML1 channel; activity change, negative = inhibition, % (test concentration not listed); AID 624415; TRPML1-inducible cells, Ca2+ dye fluorescence, FDSS; hits give low values; inhibition of EC80 agonist-evoked calcium signal; Q9GZU1; 390,000 tested, 0.02% active; in the data active means activity change below about -50%; inconclusive means about -30% to -50%; inactive means above about -30%;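 note: stimulus is agonist 54-4 at its EC80 concentration; % is set by controls: 0 for no effect and ±100 for the full control effect; compound concentration not given in the record; the text of the record puts the active cut at -80%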
# Target sequence (Q9GZU1 whole entry, looked up): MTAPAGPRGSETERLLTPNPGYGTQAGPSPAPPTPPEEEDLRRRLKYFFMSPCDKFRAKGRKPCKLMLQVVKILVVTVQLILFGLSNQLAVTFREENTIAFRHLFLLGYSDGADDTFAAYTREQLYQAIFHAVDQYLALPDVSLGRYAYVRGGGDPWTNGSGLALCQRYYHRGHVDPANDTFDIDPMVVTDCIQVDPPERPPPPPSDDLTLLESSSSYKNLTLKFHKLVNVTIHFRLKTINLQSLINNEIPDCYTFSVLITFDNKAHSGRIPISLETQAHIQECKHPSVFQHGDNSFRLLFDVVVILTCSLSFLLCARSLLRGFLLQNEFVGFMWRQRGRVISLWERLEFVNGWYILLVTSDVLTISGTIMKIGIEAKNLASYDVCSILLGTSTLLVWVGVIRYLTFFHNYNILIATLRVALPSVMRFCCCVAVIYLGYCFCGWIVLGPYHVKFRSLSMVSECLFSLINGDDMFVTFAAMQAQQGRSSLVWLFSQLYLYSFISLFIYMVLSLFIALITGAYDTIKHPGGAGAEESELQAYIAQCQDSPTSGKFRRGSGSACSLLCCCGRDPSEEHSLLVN
#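 Calcium fluorescence in TRPML1-DL cells induced overnight with Tet: a 110 s read after compound pin addition, then a 110 s antagonist read after challenge with 54-4 at 4 uM final (EC80).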
# ClpP mod – qHTS Assay for Activators of ClpP | Potency, µM (titrated, usually from 57.5 µM), inactives show at the highest dose activity change, negative = active | purified B. subtilis ClpP, FRET peptide cleavage, 20 min | ATP-dependent Clp protease proteolytic subunit (Bacillus subtilis (strain 168)), P80244 | 340,000 tested, 1.9% active; active = well fitted falling curve with a large enough effect; inconclusive = small, poorly fitted or top-dose-only effect; inactive = no such curve, though single readings can be large or run the other way; note: potency is the fitted concentration of half-maximal effect; the source files actives as falling curves though it sought activators and does not explain the sign; nearly all actives have a fitted effect of over 65% in size; many hits overshoot -100%
# Target sequence (P80244 whole entry, looked up): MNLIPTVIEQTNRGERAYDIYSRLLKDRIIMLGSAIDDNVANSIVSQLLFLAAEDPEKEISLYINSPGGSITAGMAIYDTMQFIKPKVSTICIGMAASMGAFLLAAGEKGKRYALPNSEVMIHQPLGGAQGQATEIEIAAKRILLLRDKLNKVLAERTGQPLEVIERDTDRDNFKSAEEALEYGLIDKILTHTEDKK
#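 FRET quenching reversal measured ClpP activation: 10 microg/mL B. subtilis ClpP at pH 8 with the FRET-FV decapeptide, read at 430 nm after 320 nm excitation. The 20-min minus 0-min signal was scaled between DMSO/no-enzyme wells and ADEP (5.8 microM final).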
# Menin MLL FP FL – menin-MLL binding inhibition, fluorescein peptide; Fluorescence polarization, fluorescein-MLL peptide displacement from menin; FP activity change, % at 61.4 µM; 290,000 tested, under 10 active; AID 1766; inconclusive = falling polarisation curve, or a change in total fluorescence; inactive = total fluorescence flat and polarisation flat or rising; no compound was filed as active; the % refers to the polarisation; negative = inhibition;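 note: % of control where 0% means no effect; inhibitors lower the polarisation; unlabelled MLL peptide was the positive control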
# gsp antag – gsp mutant antagonism; gsp-mutant cells, cAMP HTRF, 30 min; control for the full effect not named in the record; AID 624288; Potency, µM (doses to about 76.9 µM), for the others: at the highest dose activity change, negative = inhibition, usual class: inhibitors; 340,000 tested, 0.4% active; active = falling curve of any shape with a large fitted effect; inconclusive = falling curve, mostly with a smaller effect; inactive = flat or rising curve; cell line not stated here;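 note: intracellular cAMP measured with PDE inhibitor Ro 20-1724 present during compound exposure; potency is the fitted concentration of half-maximal effect; % is set by controls: 0 for no effect and ±100 for the full control effect; nearly all actives have a fitted effect of over 65% in size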
#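 Cells in G418 medium, seeded 16-24 h, 37C; buffer exchange to DPBS + 1 mM CaCl2, 0.5 mM MgCl2, 0.05% BSA; cpds in DMSO + […] (300 uM stock), 30 min 37C; HTRF cAMP detection.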
# TRPML1 ag – human mucolipin-1 channel agonism | TRPML1-expressing cells, Ca2+ dye fluorescence, FDSS; host cell line not named in the record; reference of the full effect not given here | activation, % (no concentration beside the values) | Q9GZU1 | 410,000 tested, 0.12% active; in the data active = activation above about 50%; inconclusive = about 30% to 50%; inactive = below about 30%; note: 0% is about no effect; the text of the record puts the active cut at 80%
#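 Tetracycline-induced TRPML1-DL cells are seeded and incubated overnight before loading with a no-wash Ca2+ dye and quencher. Agonist activity is taken from the 110 s fluorescence read following compound pin-transfer on an FDSS, before EC80 54-4 challenge.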
# gsp ag – agonists of gsp mutant (McCune-Albright syndrome); gsp mutant cells, cAMP HTRF, 30 min; control for the full effect not named in the record; Potency, µM (doses to about 76.9 µM), without a hit: at the highest dose activation (cAMP increase), usual class: activators; 340,000 tested, 0.13% active; AID 624287; active = well fitted activation curve with a large enough effect; inconclusive = small, poorly fitted or top-dose-only effect, or another doubt; inactive = no such curve, though single readings can be large or run the other way; cell line not stated here;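 note: phosphodiesterase inhibitor Ro 20-1724 added with compounds to block cAMP breakdown; potency is the fitted concentration of half-maximal effect; nearly all actives have a fitted effect of over 60% in size; about a fifth of the inactives were tested at one dose only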
#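 Cells in DMEM/10% FBS with G418 were pretreated with compounds in DMSO plus […] (300 uM stock) for 30 min at 37C. cAMP was measured by HTRF (cAMP-d2 plus anti-cAMP antibody-K) after 30 min at room temperature.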
# An asterisk follows results filed as active; ? = inconclusive; / = not tested or not shown; [ ] = another dose, or the depositor's remark. Rows are unselected; 2.1% or so of the library scored in one or more.
canonical_smiles | TRPML1 inh | ClpP mod | Menin MLL FP FL | gsp antag | TRPML1 ag | gsp ag
Brc1ccc2ncnc(Nc3cccc4ccccc34)c2c1 | -10.7 | -1.9% | 4.8 | -1.6% | 1.1 | -66.0%[inhibitor]
CN(C)S(=O)(=O)c1ccc(N2CCCC2)c(C(=O)NC2(C)CCS(=O)(=O)C2)c1 (stereo unspecified) | 15.7 | -0.1% | / | 12.3% | 1.2 | -8.9%[15.4 µM]
CCC(=O)N(Cc1cc2cc(OC)ccc2[nH]c1=O)c1ccc(C)cc1 | -12.9 | / | 2.9 | 3.6% | 0.6 | -26.3%
Cc1ccc(S(=O)(=O)NCCN2CCOCC2)cc1C | 2.4 | 1.6% | 1.8 | 11.0% | -0.4 | -39.8%[inhibitor]
CCOC(=O)N1CCN(C(=O)CSc2ccc3nnc(-c4ccncc4)n3n2)CC1 | -23.1 | / | 1.2 | -12.2% | 0.0 | 49.0%[15.4 µM]
COc1ccc(OC)c(NC(=O)Cn2ccn(-c3ccc(F)cc3)c(=O)c2=O)c1 | 15.0 | -5.2% | / | / | -0.1 | /
COCCSc1ccccc1C(=O)NCc1ccc2c(c1)OCO2 | 25.8 | 1.6% | 1.5 | -1.8% | -0.4 | -48.4%[inhibitor]
COCCNC(=O)Cc1c(C)c2c(cc(C)c3c(C)coc32)oc1=O | 8.3 | 4.3% | -1.0 | -0.3% | 1.0 | ?
COc1ccc2c(c1)Cc1sc(NC(=O)c3cccc(Br)c3)nc1-2 | 20.1 | -8.9% | / | / | 0.0 | /
CN(Cc1ccc(C#CCCO)cc1)CC1CCCN(CCc2ccc(Cl)cc2)C1 (stereo unspecified) | -6.5 | 1.5% | -4.3 | 5.5% | -0.2 | 38.1%
COc1cccc(C(=O)N/N=C(/c2ccccc2)c2ccccn2)c1 | 7.1 | 1.1% | 0.4 | -26.8% | -0.7 | -11.7%
CC(=O)c1cccc(NC(=O)Nc2ccc3c(c2)OCO3)c1 | -3.7 | 1.6% | / | 0.6% | 0.3 | -17.8%
Cc1ccc(Nc2cc(C)c(C#N)c3nc4ccccc4n23)c(C)c1 | 2.7 | -2.1% | / | / | 0.9 | /
CCOc1ccc(N(Cc2ccc(C(=O)O)cc2)S(=O)(=O)c2ccc(C)cc2)cc1 | 13.7 | -1.4% | 1.1 | 8.7% | 1.1 | 11.8%[15.4 µM]
COC(=O)CCC(=O)OC1(C)C(=O)C=C2C=C(C3CC3)N(CCCOC(C)C)C=C2C1=O (stereo unspecified) | -10.7 | -7.2% | -7.9[11.7 µM] | 0.1% | -0.3 | 3.2%
COc1ccc2[nH]c3c(=O)n(Cc4ccc(C(=O)N5CCCC5)cc4)c(=S)[nH]c3c2c1 | 6.7 | -1.6% | -5.2 | -4.5% | -0.2 | -8.0%
COc1ccc(Nc2ccccc2)c(C)c1 | -1.9 | -3.5% | 1.8 | -7.4% | 1.8 | -7.8%
O=C(N/N=C/c1cccnc1)c1cc2ccccc2cc1O | 19.2 | 1.8% | -0.4 | -15.7% | -0.3 | 16.9%
COc1ccc(NC(=O)NCC2CCN(Cc3ccccc3F)CC2)c(OC)c1 | 21.5 | -0.5% | / | / | -0.5 | /
NC(=O)CC(NC(=O)Cc1ccc(Br)cc1)c1ccc(N2CCN(c3ccccn3)CC2)c([N+](=O)[O-])c1 (stereo unspecified) | 21.6 | 2.0% | 0.1 | -6.9% | -0.8 | /
O=C(O)C1CCCCC1C(=O)NCCc1ccncc1 (stereo unspecified) | 33.4 | 0.6% | 4.4 | -6.4%[15.4 µM] | 1.1 | 5.2%
O=c1[nH]c2cc([N+](=O)[O-])c(NCCO)c([N+](=O)[O-])c2[nH]1 | 10.9 | / | -0.9 | ? | -0.6 | 25.2%
COc1ccc(CC2(C)OC(c3ccc(Cl)cc3)=NN2C(C)=O)cc1 (stereo unspecified) | 76.6 | -0.2% | 4.4 | -12.7% | 4.7 | 9.4%[15.4 µM]
O=C(CSc1nnnn1-c1ccccc1)Nc1ccc(Cl)cn1 | 3.7 | -14.9% | -3.5 | 3.7% | -0.7 | ?
CCOC(=O)C1(CC)NC(c2cccc(F)c2)C2C(=O)N(CC)C(=O)C21 (stereo unspecified) | 3.9 | -1.0% | 2.1 | 0.1% | 0.0 | -32.2%[inhibitor]
Cc1ccc2c(CN3CC(C)CC(C)C3)cc(=O)oc2c1 (stereo unspecified) | 27.2 | -0.1% | 1.5 | -36.5% | 0.3 | 8.1%[15.4 µM]
COc1cc(-c2[nH]ncc2CN2CCN(c3cccc(C)n3)CC2)cc(OC)c1OC | 15.4 | -14.0% | 3.1 | 2.1% | 1.5 | 8.3%
Cc1cccc(C)c1NC(=O)NC1CCc2ccccc21 (stereo unspecified) | 4.0 | 2.1% | -1.1 | -0.2% | 1.5 | ?
COc1ccc(-c2nnc(Nc3ccc(OC)c(C(=O)N4CCCCC4)c3)c3ccccc23)cc1 | 25.0 | -1.0% | 1.4 | ? | 1.9 | ?
CCn1ncc(-c2cc(C(=O)O)no2)c1C | 14.4 | / | -7.3 | 5.2% | 1.0 | 0.4%[15.4 µM]
COc1cccc(C(C#N)N2N=C(C)CC2(C)C)c1O (stereo unspecified) | -7.0 | -1.3% | 3.1 | -3.0% | -0.6 | 14.0%
CCOC(=O)C1CCN(C(=O)CC(C)c2ccccc2)CC1 (stereo unspecified) | -5.8 | -2.7% | 4.4 | 5.6% | 2.9 | 0.6%
Cc1csc(C(C)NC(=O)c2ccc(OC3CCN(CCc4ccccc4)CC3)cc2)n1 (stereo unspecified) | 6.2 | -3.9% | / | 4.7% | 1.3 | 2.0%
COc1ccc([N+](=O)[O-])cc1NC(=O)C(C)OC(=O)c1cccnc1 (stereo unspecified) | -8.7 | 0.1% | 1.5 | -17.6% | 0.7 | ?
O=C(CSc1nnc(C2COc3ccccc3O2)o1)N1CCCc2ccccc21 (stereo unspecified) | -5.1 | 0.7% | 0.6 | 1.0%[15.4 µM] | 1.1 | 1.7%
O=C(COC(=O)/C=C/c1ccccc1Cl)NCC1CCCO1 (stereo unspecified) | -0.6 | / | / | -3.7% | -0.6 | 15.6%
Cc1ccc(-c2nc(CN(CC3CCC3)CC3CCCO3)c(C)o2)s1 (stereo unspecified) | 10.0 | / | -3.9 | -4.0% | 0.4 | -30.8%
Cc1c2c(n3c(nc4ccccc43)c1C#N)N(CCN(C)C)CC2 | 7.0 | 3.9% | 0.0 | -12.0% | -0.7 | ?
COc1ccccc1C(=O)N(Cc1nc(-c2cccc(C)c2)no1)C(C)C | 2.8 | -1.0% | / | / | -0.4 | /
O=C(/C=C/c1ccccc1)NC(=S)NNC(=O)c1ccco1 | -13.1 | 2.1% | -1.5 | 7.3% | -1.1 | -25.0%
CS(=O)(=O)N1CCC(Oc2ccccc2C(=O)NC2CCOC2)CC1 (stereo unspecified) | -2.2 | 0.1% | 0.2 | 5.5% | -0.7 | 13.6%
CCOC(=O)c1c(C)[nH]c(C)c1S(=O)(=O)N1CCC(C(=O)NCc2ccc(F)cc2)CC1 | -15.4 | -1.7% | / | / | 0.7 | /
COc1ccc(OC)c(C2C3=C(CCCC3=O)Nc3nnnn32)c1 (stereo unspecified) | 1.6 | -9.2% | -11.5 | -7.3% | 0.0 | -13.0%
Cc1cc(C(=O)OCC(=O)Nc2ccc(F)cc2[N+](=O)[O-])c2ccccc2n1 | 4.8 | / | 2.9 | -5.5% | -0.4 | -41.7%[inhibitor]
Cc1cc(NC(=O)CN2C(=O)C3CC=CCC3C2=O)no1 (stereo unspecified) | 10.7 | -0.4% | 0.5 | -1.1% | 0.5 | -0.8%
CN1CCN(CC(O)COc2ccc(C(=O)O)cc2)CC1 (stereo unspecified) | 3.1 | -3.8% | 0.1 | 19.0% | -0.5 | 1.4%[15.4 µM]
Nn1c(SCC(=O)Nc2ccc3c(c2)OCO3)nncc1=O | 8.0 | / | -0.1 | 2.6% | -0.3 | 23.2%
COc1ccccc1C(CC(=O)Nc1ccc(C)c(C)c1)c1ccc(OC(C)C)cc1 (stereo unspecified) | -24.8 | / | 5.6 | -5.9% | 0.0 | 18.9%[15.4 µM]
COc1ccccc1NC(=O)c1ccc(NS(=O)(=O)c2cccc3cccnc23)cc1 | 7.0 | -5.0% | 4.0 | ? | -0.1 | 2.7%[15.4 µM]
Cn1cc(CN2CCc3ccccc3C2)c2ccccc21 | -6.6 | -4.3% | -9.5 | -0.8% | -0.3 | 22.2%
CCOc1ccc(NC(=O)COC(=O)CSCC(=O)Nc2ccc(C)cc2C)cc1 | -0.7 | 1.9% | / | 2.5% | 0.3 | -20.0%
CCn1cnc2sc(C(=O)Oc3cccc(C)c3)c(C)c2c1=O | 23.8 | / | -4.2 | 2.8% | 0.1 | -4.9%
Cc1cccc(CC(=O)NCCN2CCOCC2)c1 | -7.7 | / | -0.7 | 9.3% | 0.5 | -55.1%
CC(C)C(NC(=O)c1ccc(C(C)(C)C)cc1)C(=O)OCC(=O)NC(=O)Cc1ccccc1 (stereo unspecified) | -6.4 | 1.9% | 7.3 | -18.4% | 1.0 | 16.8%
FC(F)(F)C(F)(F)c1nnc2ccc(-n3ccnc3)nn12 | 4.8 | -0.8% | ? | -4.7% | -0.5 | -17.6%[15.4 µM]
COc1ccc2c(c1)nc(SCC(=O)c1cccs1)n2C | -5.6 | -1.7% | -1.1 | -1.0% | 0.3 | -6.0%
Clc1ccc(/C=C/c2ncc3ccccn23)cc1 | -6.0 | / | 4.0 | -92.2% | -0.5 | 17.8%[15.4 µM]
NNC(=O)c1oc2ccccc2c1-n1cccc1 | 5.6 | / | -3.4 | -2.0% | 0.5 | 21.5%[15.4 µM]
CCC(C)NC(=O)[C@H]1N2C(=O)c3c(ccc(OC)c3OC)C2SC1(C)C (stereo partly specified) | -3.6 | / | -3.9 | -1.1% | 1.2 | -7.6%
COc1ccc(-n2nc(C(=O)NCC(=O)NCCc3ccc(OC)c(OC)c3)c3ccccc3c2=O)cc1Cl | -7.6 | / | -4.2 | -19.4% | 0.8 | 11.2%

# Further structures:
canonical_smiles | TRPML1 inh | ClpP mod | Menin MLL FP FL | gsp antag | TRPML1 ag | gsp ag
CCNc1nc(NCC)n2c(SCc3ccc(F)cc3)nnc2n1 | -11.1 | -0.2% | 5.0 | 15.6% | 0.1 | 20.1%
O=S(=O)(c1ccc(Cl)cc1)c1nc(-c2ccccc2Br)oc1NCc1ccccc1 | 13.2 | 20µM* | / | / | -0.1 | /
COCCN1C(=O)c2ccc(C(=O)NCc3cccnc3)cc2C1=O | -11.2 | -2.6% | 0.7 | 1.1% | -0.3 | ?
Cc1cc(OC(C)C(=O)NCCN2CCOCC2)c2c(C)cc(=O)oc2c1 (stereo unspecified) | -12.7 | 3.7% | -8.1 | -8.2% | 1.0 | ?
O=C(c1nn2c(C(F)(F)F)cc(-c3ccccc3)nc2c1Cl)N1CCN2CCCC2C1 (stereo unspecified) | 18.3 | -1.3% | -5.7 | -1.7% | 5.3 | 8.3%

# Source: PubChem BioAssay
